Methyltransferases – Primary Screen for Target Class Profiling of Small Molecule Inhibitors of Methyltransferases; purified enzyme, MTase-Glo SAH luminescence; hits give low values; calls only at 40 µM; 25,000 compounds, 3.9% hits; AID 1745853, 2022; active = -50% or lower on at least one of six enzymes; inconclusive = the cases between; inactive = as a rule above -30% on all six;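 also: enzymes were COMT GAMT GNMT HNMT NNMT and PNMT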
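Each enzyme was reacted with SAM and its substrate, with compounds tested once at 40 uM; SAH formed was read by MTase-Glo luminescence.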
Calls only; i = inactive; ? = inconclusive; + = active, no number. % is scaled to controls: 0 for no effect and ±100 for the full control effect.

molecule | Methyltransferases
COc1ccc(C(=O)N[C@@H]2CN(C(=O)Nc3cccc(C(F)(F)F)c3)CCC[C@H]2O)cc1 | i
C[C@]1(CO)[C@H]2Cc3sc(-c4ccsc4)nc3[C@@H](CC(=O)Nc3cccc(O)c3)[C@]2(C)CC[C@H]1O | i
CN1CCCN(S(=O)(=O)c2cn(C)cn2)c2ccccc21 | i
Cc1[nH]ccc1C(=O)N(CCN1CCCCC1)CC1CCCN(C2CCCC2)C1 (configuration not stated) | i
COc1ccc(CN2C(=O)c3c(NC(C)=O)c4cc(C)ccc4n3CC2(C)C(=O)NC2CCCCCC2)cc1 (configuration not stated) | i
CCCn1c(=O)c2ccc(C(=O)NCC(C)C)cc2n2c(=O)n(CC(=O)Nc3ccc(C)cc3C)nc12 | i
COc1cc(NC(=O)CCC2CCCN(C(=O)CCN3CCCCO3)C2)cc(OC)c1 (configuration not stated) | i
O=[S+]1([O-])N(Cc2ccccc2)C[C@@H](O)[C@]12CCN(Cc1ccc(C(F)(F)F)nc1)C2 | i
COC(=O)Cn1c(=O)oc2cc(S(=O)(=O)NCC(C)c3ccccc3)ccc21 (configuration not stated) | i
CN(CCc1ccc(Nc2ncc(-c3cccnc3)s2)cc1)Cc1ccccc1 | +
Cc1cccc(NC(=O)Cn2nc3n(C)c(=O)c4ccc(C(=O)NC5CCCCC5)cc4n3c2=O)c1 | i
Cn1c(CNC(=O)CC2CCN(S(C)(=O)=O)C2)nc2ccccc21 (configuration not stated) | i
Cc1noc(-c2ccn3c(CNC(=O)COc4ccccc4)nnc3c2)n1 | i
Cc1ccc(N2C(=O)c3cc4occc4n3CC2(C)C(=O)NC2CCCCCC2)cc1C (configuration not stated) | i
O=C(CCn1ccc2cc(S(=O)(=O)N3CCCCC3)ccc21)NC1CCCC1 | i
COc1ccc(CNC(=O)CCc2nnc3n(CCc4ccccc4)c(=O)c4ccccc4n23)cc1 | i
CC(C)n1cc(C(=O)N2CCCC(c3nnc(Cn4ccnc4)n3C)C2)cn1 (configuration not stated) | i
CCN(CC)CCOc1ccc(/C(=C(\Cl)c2ccccc2)c2ccccc2)cc1 | i
CSc1cccc(NC(=O)c2cc3n(n2)CC(C)(C(=O)NC2CCCCC2)N(C)C3=O)c1 (configuration not stated) | i
O=C(NC1CCCC1)c1ccc2c(=O)n(Cc3ccccc3)c3nn(Cc4ccccc4)c(=O)n3c2c1 | i

4 entries picked at random from those above:
molecule | Methyltransferases
COc1ccc(CNC(=O)CCc2nnc3n(CCc4ccccc4)c(=O)c4ccccc4n23)cc1 | i
Cc1noc(-c2ccn3c(CNC(=O)COc4ccccc4)nnc3c2)n1 | i
O=C(CCn1ccc2cc(S(=O)(=O)N3CCCCC3)ccc21)NC1CCCC1 | i
CN(CCc1ccc(Nc2ncc(-c3cccnc3)s2)cc1)Cc1ccccc1 | +

Next section.
molecule | Methyltransferases
CN(CCCc1nccn1C)C(=O)[C@H]1CCC[C@H](O)C1 | i
CC(C)=C/C=C\[C@H](C)[C@H]1CC[C@]2(C)C[C@@H]3C(C)=CC(=O)C3/C(CO)=C\C[C@@H]12 (some centres not stated) | i
CC1(C(=O)NCc2ccc(F)cc2)Cn2cnc(C(=O)NCCc3ccccc3)c2C(=O)N1C1CC1 (configuration not stated) | i
CS(=O)(=O)N1CCC(C2CCN(C(=O)NC3CCCC3)C2)CC1 (configuration not stated) | i
Cc1ccc(CNC2CN(C(=O)OC(C)(C)C)C2)nc1 | i
COc1cc(NC(=O)O[C@@H]2CC[C@]3(C)C(CC[C@@H](O)[C@H]3CC(=O)N3CC[C@H](NC(C)=O)C3)[C@]2(C)CO)cc(OC)c1 (some centres not stated) | i
O=C(CSc1nc2ccccc2c(=O)n1-c1ccccc1)Nc1ccc2c(c1)CCC2 | i
CC(=O)NCC(=O)N1CCC(c2cc(-c3ccc(F)cc3)n[nH]2)CC1 | i
O=C(c1cccc(F)c1)N1CCCC(CN2CCOCC2)CC1 (configuration not stated) | i
Cn1c(=O)cc(N2CCCC(N)C2)n(Cc2cc(F)ccc2C#N)c1=O (configuration not stated) | i

Another view of 2 compounds above:
SMILES: CCN(CC)CCOc1ccc(/C(=C(\Cl)c2ccccc2)c2ccccc2)cc1
- Methyltransferases: i

SMILES: Cc1cccc(NC(=O)Cn2nc3n(C)c(=O)c4ccc(C(=O)NC5CCCCC5)cc4n3c2=O)c1
- Methyltransferases: i

More entries follow.
molecule | Methyltransferases
CCC(C)NC(=O)c1ccc2c(=O)n(CC(C)C)c3nn(CC(=O)c4ccc(OC)cc4)c(=O)n3c2c1 (configuration not stated) | i
CCCn1c(=O)c2ccc(C(=O)NC3CCCCC3)cc2n2c(=O)n(CC(=O)NCc3ccccc3)nc12 | i
O=C(CCc1nnn2c1CN(C(=O)COc1ccc(F)cc1)CC2)N1CCCC1 | i
CNC(=O)c1cccn2cncc12 | i
Cn1c(=O)[nH]c2ncn(C)c2c1=O | i
O=C(NCc1ccc(Cl)cc1)c1ccc2ccnn2c1 | i
OCC(CO)(CO)NCC(O)Cn1c2ccc(Cl)cc2c2cc(Cl)ccc21 (configuration not stated) | ?
C=C1C(=O)O[C@@H]2/C=C(/C)CC3C=C(C[C@H](OC(=O)/C(C)=C\C)[C@@H]12)C(=O)O3 (some centres not stated) | i
OCC1(Cc2ccccc2F)CCCN(c2nnnn2-c2ccccc2)C1 (configuration not stated) | i
CC1(C)CCCC2(C)C1C(OC(=O)/C=C/C=C/C=O)C=C1COC(=O)C12O (configuration not stated) | i
Cc1cnc(CCNC(=O)c2n[nH]c3ccccc23)n1C1CCC1 | ?
CCC(C)N1C(=O)c2cc3sccc3n2CC1(C)C(=O)NC1CCCCCC1 (configuration not stated) | i
COc1cc2ncnc(-n3nc(-c4ccccn4)nc3N)c2cc1OC | i
CCCc1nnc([C@H]2CCN(C(=O)c3ccccc3)C2)o1 | i
Cc1ccc(CN2CC[C@H](c3nnc(-c4ccco4)o3)C2)o1 | i
Cc1cc(Cl)ccc1OCC(=O)N1CC(CO)C2(CCNCC2)C1 (configuration not stated) | i
Cc1ccc(CNC(=O)Cn2nc3n(C(C)C)c(=O)c4ccc(C(=O)NC(C)C)cc4n3c2=O)cc1 | i
CCCn1c(=O)c2ccc(C(=O)NC(C)C)cc2n2c(SCC(=O)Nc3ccccc3F)nnc12 | i
CCn1cc(-c2ccc(Cl)cc2)cc1C(=O)N1CCN(c2ccccn2)CC1 | i
CCCC1c2cccn2CCN1C(=O)NCc1cccc(OC)c1 (configuration not stated) | i

The last 4 entries of the part before are carried over, then new ones follow.
SMILES,Methyltransferases
Cc1ccc(CNC(=O)Cn2nc3n(C(C)C)c(=O)c4ccc(C(=O)NC(C)C)cc4n3c2=O)cc1,i
CCCn1c(=O)c2ccc(C(=O)NC(C)C)cc2n2c(SCC(=O)Nc3ccccc3F)nnc12,i
CCn1cc(-c2ccc(Cl)cc2)cc1C(=O)N1CCN(c2ccccn2)CC1,i
CCCC1c2cccn2CCN1C(=O)NCc1cccc(OC)c1 (configuration not stated),i
CC1(C(=O)NC2CCCC2)Cn2c(nc3ccccc32)C(=O)N1Cc1cccc(Cl)c1 (configuration not stated),i
CC1(C(=O)NC2CCCCCC2)Cn2nc(-c3ccco3)cc2C(=O)N1Cc1ccc(F)cc1 (configuration not stated),i
CCCCNC(=O)Cn1ccc2cc(S(=O)(=O)N3CCC(C)CC3)ccc21,i
CCCNC(=O)C1N(c2ccc(OC)cc2)C(=O)C12CCCCC2 (configuration not stated),i
CCCCNc1nc2c(-c3ccc(F)cc3)nnn2c2ccccc12,i
CCOC(=O)c1cc2n(n1)CC(C)(C(=O)NC1CCC(C)CC1)N(c1ccccc1C)C2=O (configuration not stated),i
CC(C)CNC(=O)c1ccc2c(=O)n(C)c3nn(Cc4ccccc4F)c(=O)n3c2c1,i
C=C1CCC2C(C)(C(=O)OC)CCCC2(C)C1CCC1=CCOC1=O (configuration not stated),i
O=C(N[C@H]1C[C@H]2C(=O)NC[C@@H](CCC(=O)N3CCN(c4ccccn4)CC3)N2C1)c1cccs1,i
Cc1cc2c(cc3n2CC(C)(C(=O)NC2CCCCCCC2)N(C2CCCCC2)C3=O)o1 (configuration not stated),i
O=C(c1cc(-c2ccc(F)cc2)n[nH]1)N1CC2CC(C1)[C@H]1CCCC(=O)N1C2 (some centres not stated),i
CC(C)CCNC(=O)CCn1ccc2cc(S(=O)(=O)N3CCCCC3)ccc21,i
CSc1ccc(CCN2C(=O)CSc3c(c4ccccc4n3C)C2C(=O)NCc2ccccc2)cc1 (configuration not stated),i
O=C(c1ccc2c(=O)nc3c(-c4ccc(F)cc4)n[nH]n3c2c1)N1CCN(c2ccccn2)CC1,i
CCOC(=O)CC(NS(=O)(=O)c1ccc2[nH]c3c(c2c1)CCCC3)c1ccccc1Cl (configuration not stated),i
Clc1cccc2c1NC(c1ccc(Br)cc1)C1CC=CC21 (configuration not stated),i
CC(C)CNC(=O)c1ccc2c(=O)n(C(C)C)c3nn(CC(=O)NC(C)C)c(=O)n3c2c1,i
O=C(NCc1ccc(F)c(F)c1)c1ccc2nnc(Cc3ccco3)n2c1,i
Cc1ccc(-n2nc(C)c([C@H]3C=C[C@@H](OC(=O)Nc4ccc(C(C)C)cc4)C3)c2C)cc1Cl,i
CCCn1c(=O)c2ccc(C(=O)NCC(C)C)cc2n2c(=O)n(CC(=O)Nc3ccccc3F)nc12,i
CC(C)Oc1ccc(CN2C(=O)c3nc4ccccc4n3CC2(C)C(=O)NC2CCCCCC2)cc1 (configuration not stated),i
O=C(NC[C@H]1O[C@@H](CO)[C@@H](O)[C@H]1N1CCCC1)c1ccc(F)c(Cl)c1,i
COc1ccc(N2C(=O)c3cc4sccc4n3CC2(C)C(=O)NC2CCCCCC2)cc1OC (configuration not stated),i
COC(=O)c1ncn2c1C(=O)N(CCc1ccc(Cl)cc1)C(C)(C(=O)NC1CCCCCC1)C2 (configuration not stated),i
CC1CCCCC1NC(=O)C1(C)Cn2c(nc3ccccc32)C(=O)N1Cc1cccnc1 (configuration not stated),i
O=C(N[C@@H]1CCOC[C@H]1OCc1ccccn1)c1cccc(-n2cnnc2)c1,i
Cn1c2c(c3ccccc31)C(C(=O)NCc1ccccc1)N(c1cccc(Cl)c1)C(=O)CS2 (configuration not stated),i
CCCCCCOc1cc2c(cc1N(C)c1ncc(C(=O)O)cn1)C(C)(C)CCC2(C)C,i
Cc1cnc(C2CCOCC2)n1CC1CCN(C2CCCCCC2)CC1,i
Cc1ccc(C(C(=O)NCc2ccc(O)cc2)N(C)C)cc1 (configuration not stated),i
Cc1ccc(C)c(N2C(=O)c3cc4sccc4n3CC2(C)C(=O)NC2CCCCC2C)c1 (configuration not stated),i
Cc1ccc(S(=O)(=O)c2nnn3c2nc(NCc2ccccc2)c2ccccc23)cc1,i
CCc1ccc(N2C(=O)c3cc(C(=O)OC)nn3CC2(C)C(=O)NC2CCCCCC2)cc1 (configuration not stated),i
CC(C)CCN1C(=O)CSc2c(c3ccccc3n2C)C1C(=O)NCc1ccccc1 (configuration not stated),i
CC1=C(C(=O)OC2OC(COC3OC(CO)C(O)C(O)C3O)C(O)C(O)C2O)C(C)(C)CCC1 (configuration not stated),i
C=C1CC2[C@@]3(C)C=CC(=O)C(C)(C)C3=C(O)C(=O)[C@@]2(C)C2(C(=O)OC)C(=O)C(C)OC(=O)[C@@]12C (some centres not stated),i
Cc1ccc(CNC(=O)CCc2nnc3n(CCc4ccccc4)c(=O)c4ccccc4n23)cc1,i
Cc1ccc(CNC(=O)c2cc3n(n2)CC(C)(C(=O)NCc2ccc(F)cc2)N(C)C3=O)o1 (configuration not stated),i
CCc1cccc(NC(=O)Cn2nc3n(C(C)C)c(=O)c4ccc(C(=O)NC(C)CC)cc4n3c2=O)c1 (configuration not stated),i
O=S(=O)(c1ccc(Cl)c(-c2nnc(-c3ccccc3)o2)c1)N1CCN(c2ccc(F)cc2)CC1,i
C[C@@H]1[C@H]2[C@H](O[C@@H]3O[C@H](CO)[C@@H](O)[C@H](O)[C@H]3O)OC=C(C(=O)O)[C@H]2C[C@@H]1O,i
COc1cccc(CN2CC(=O)N(Cc3ccc(Cl)cc3)c3ccccc3S2(=O)=O)c1,i
COC(=O)C1=CO[C@@H](O[C@@H]2O[C@H](CO)[C@@H](O)[C@H](O)[C@H]2O)[C@@H]2[C@@H](CO)[C@@H](O)C(O)[C@H]12 (some centres not stated),i
CC(c1cccc(-c2cccc(C(=O)N(C)C)n2)c1)N1CCCC1 (configuration not stated),i
Cc1nc2ccc(C(=O)NCc3cc4n(n3)CCN(C(=O)N(C)C)C4)cc2o1,i
COc1ccc(-c2ccnc(N[C@H]3CO[C@H]4[C@@H]3OC[C@@H]4NC(=O)Nc3ccc(C(C)=O)cc3)n2)cc1,?
COc1ccc(CN2C(=O)c3cc4ccc(OC)cc4n3CC2(C)C(=O)NC2CCCCC2)cc1 (configuration not stated),i
Cn1cc(C(=O)NC2CC(c3cc(N4CCOCC4)ncn3)C2)cn1 (configuration not stated),?
CCOCCCNC(=O)Cn1ccc2cc(S(=O)(=O)N3CCCCC3)ccc21,i
O=C(NCc1ccccc1)C1COC2(CCN(C(=O)c3cccs3)CC2)N1C(=O)c1ccco1 (configuration not stated),i
C[C@@H]1O[C@@H](O[C@H]2[C@H](OC(=O)[C@]34CCC(C)(C)C[C@H]3C3=CCC5[C@@]6(C)C[C@H](O)[C@H](O[C@@H]7O[C@H](CO[C@@H]8OC[C@H](O)[C@H](O)[C@H]8O)[C@@H](O)[C@H](O)[C@H]7O)C(C)(C)C6CC[C@@]5(C)[C@]3(C)C[C@H]4O)OC[C@@H](O)[C@@H]2O)[C@H](O)[C@H](O[C@@H]2OC[C@](O)(CO)[C@H]2O)[C@H]1O[C@@H]1OC[C@H](O)[C@H](O[C@@H]2OC[C@@H](O)[C@H](O)[C@H]2O)[C@H]1O (some centres not stated),i

These rows are one share of the data; the hit share may differ from the screen's.
